# FGF22 binding: binders of human FGF22 protein, primary screen, FGF22 synaptogenesis inhibitor project, biophysical, thermal shift, single point; Fibroblast growth factor 22 (Homo sapiens), Q9HCT0; recombinant FGF22 thermal shift, SYPRO orange fluorescence; percent of sucrose octasulfate shift, DMSO zero; calls only at 9.99 µM; actives 1.5% (n = 340,000); AID 651658, 2012;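 active means melting point raised past a set limit in the mean and every replicate; three in four hits are not shown here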
# Target sequence (Q9HCT0 whole entry, looked up): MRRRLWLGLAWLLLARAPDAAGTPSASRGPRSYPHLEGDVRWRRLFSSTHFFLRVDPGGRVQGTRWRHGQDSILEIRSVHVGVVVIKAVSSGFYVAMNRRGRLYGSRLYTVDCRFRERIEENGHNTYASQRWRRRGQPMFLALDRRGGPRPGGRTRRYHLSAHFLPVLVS
# Calls only; i = inactive. Not all compounds are listed (hit frequency here may not be typical).
SMILES,FGF22 binding
COc1cccc(-c2ccc3c(c2)O[C@@H](CN(C)C(C)=O)[C@@H](C)CN([C@H](C)CO)S3(=O)=O)c1,i
COC(=O)C[C@@H]1CC[C@H]2[C@@H](COc3ccc(NC(=O)c4cnccn4)cc3C(=O)N2C)O1,i
C[C@@H]1CN([C@H](C)CO)C(=O)CCCn2nncc2CO[C@@H]1CN(C)Cc1ccc(C(=O)O)cc1,i
C[C@H](CO)N1C[C@H](C)[C@@H](CN(C)Cc2ccc(-c3ccccc3)cc2)Oc2ccc(NS(=O)(=O)c3ccccc3)cc2C1=O,i
C[C@@H]1CN([C@@H](C)CO)C(=O)c2cc(NC(=O)CCC(F)(F)F)ccc2O[C@@H]1CN(C)C,i
O=S(=O)(N[C@@H]1CC[C@@H](CCn2cc(-c3cccc(F)c3)nn2)O[C@H]1CO)c1ccccc1,i
C[C@@H]1CN([C@@H](C)CO)C(=O)c2cc(NC(=O)C3CC3)ccc2O[C@@H]1CN(C)C(=O)Nc1ccc(F)cc1,i
C[C@@H](O)C#Cc1ccc2c(c1)O[C@@H](CN(C)C)[C@@H](C)CN([C@@H](C)CO)S2(=O)=O,i
O=C(C[C@@H]1C=C[C@@H](NC(=O)NC2CCCCC2)[C@@H](CO)O1)NCc1ccc(Cl)cc1,i
O=C(Cc1cccnc1)N1CC(=O)N2[C@H](CO)[C@@H](c3ccc(/C=C/c4ccccc4)cc3)[C@@H]2C1,i
CO[C@@H]1CN(C)C(=O)c2ccc(NC(C)=O)cc2OC[C@H](C)N(C(=O)c2cnccn2)C[C@@H]1C,i
CCC(=O)N(C)C[C@@H]1Oc2cc(-c3ccc(C#N)cc3)ccc2S(=O)(=O)N([C@H](C)CO)C[C@H]1C,i
COc1ccc2c3c([nH]c2c1)[C@H](CO)N(C(=O)CN(C)C)CC31CCN(Cc2ccccc2Cl)CC1,i
O=C(C1CCCC1)N1C[C@H]2[C@@H](c3ccccc31)[C@H](CO)N2C(=O)Nc1cccc(F)c1,i
CO[C@H]1CN(C)C(=O)c2cc(NC(=O)c3ccccc3F)ccc2OC[C@H](C)NC[C@H]1C,i
C[C@H]1CN([C@@H](C)CO)C(=O)c2cccc(NC(=O)C3CCOCC3)c2O[C@H]1CN(C)C(=O)Nc1ccc(C(F)(F)F)cc1,i
CN1CCN(C(=O)C[C@@H]2CC[C@H]3[C@H](COc4ccc(NC(=O)C5CC5)cc4C(=O)N3C)O2)CC1,i
Cc1cccc(S(=O)(=O)N2CCCCN3[C@@H](CO)[C@@H](c4ccc(C#CC(C)C)cc4)[C@@H]3C2)c1,i
CCCC(=O)Nc1ccc2c(c1)C(=O)N(C)[C@H]1CC[C@H](CC(=O)NCC3CC3)O[C@H]1CO2,i
C[C@H]1CN([C@@H](C)CO)C(=O)c2cc(NS(=O)(=O)c3cn(C)cn3)ccc2O[C@H]1CN(C)C(=O)NC1CCCCC1,i
C[C@H]1CCCCO[C@H](CN(C)C(=O)NC2CCCCC2)[C@@H](C)CN([C@@H](C)CO)C(=O)c2cc(N(C)C)ccc2O1,i
C[C@H](CO)N1C[C@H](C)[C@@H](CN(C)S(=O)(=O)c2ccc(Cl)cc2)Oc2ccc(NC(=O)Cc3ccccc3)cc2CC1=O,i
Cc1ccccc1-c1ccc([C@@H]2[C@H](CO)N3C(=O)CN(C(=O)NC4CCCC4)C[C@@H]23)cc1,i
C[C@H](O)C#Cc1ccc2c(c1)O[C@H](CN(C)Cc1cncnc1)[C@@H](C)CN([C@@H](C)CO)S2(=O)=O,i
CC(C)C#Cc1cnc2c(c1)C(=O)N([C@H](C)CO)C[C@@H](C)[C@H](CN(C)C(=O)CC1CC1)O2,i
Cc1noc(C)c1S(=O)(=O)Nc1ccc2c(c1)C(=O)N([C@@H](C)CO)C[C@@H](C)[C@H](CN(C)S(=O)(=O)c1ccc(F)cc1)OCCCC[C@H](C)O2,i
C/C=C/c1cnc2c(c1)C(=O)N([C@@H](C)CO)C[C@H](C)[C@@H](CN(C)S(=O)(=O)c1cn(C)cn1)O2,i
C[C@H](CO)N1C[C@H](C)[C@H](CN(C)C(=O)c2ccccc2)OCCCC[C@H](C)Oc2ccc(NC(=O)CCC(F)(F)F)cc2C1=O,i
C[C@H](CO)N1C[C@H](C)[C@H](CN(C)C(=O)C2CC2)Oc2ncc(-c3ccccc3F)cc2C1=O,i
CCC(=O)N[C@@H]1CC[C@@H](CC(=O)NCCN2CCCCC2)O[C@H]1CO,i

# No new results follow: twelve of the compounds above.
SMILES,FGF22 binding
C[C@H]1CN([C@@H](C)CO)C(=O)c2cccc(NC(=O)C3CCOCC3)c2O[C@H]1CN(C)C(=O)Nc1ccc(C(F)(F)F)cc1,i
CN1CCN(C(=O)C[C@@H]2CC[C@H]3[C@H](COc4ccc(NC(=O)C5CC5)cc4C(=O)N3C)O2)CC1,i
Cc1cccc(S(=O)(=O)N2CCCCN3[C@@H](CO)[C@@H](c4ccc(C#CC(C)C)cc4)[C@@H]3C2)c1,i
CCCC(=O)Nc1ccc2c(c1)C(=O)N(C)[C@H]1CC[C@H](CC(=O)NCC3CC3)O[C@H]1CO2,i
C[C@H]1CN([C@@H](C)CO)C(=O)c2cc(NS(=O)(=O)c3cn(C)cn3)ccc2O[C@H]1CN(C)C(=O)NC1CCCCC1,i
C[C@H]1CCCCO[C@H](CN(C)C(=O)NC2CCCCC2)[C@@H](C)CN([C@@H](C)CO)C(=O)c2cc(N(C)C)ccc2O1,i
C[C@H](CO)N1C[C@H](C)[C@@H](CN(C)S(=O)(=O)c2ccc(Cl)cc2)Oc2ccc(NC(=O)Cc3ccccc3)cc2CC1=O,i
Cc1ccccc1-c1ccc([C@@H]2[C@H](CO)N3C(=O)CN(C(=O)NC4CCCC4)C[C@@H]23)cc1,i
C[C@H](O)C#Cc1ccc2c(c1)O[C@H](CN(C)Cc1cncnc1)[C@@H](C)CN([C@@H](C)CO)S2(=O)=O,i
CC(C)C#Cc1cnc2c(c1)C(=O)N([C@H](C)CO)C[C@@H](C)[C@H](CN(C)C(=O)CC1CC1)O2,i
Cc1noc(C)c1S(=O)(=O)Nc1ccc2c(c1)C(=O)N([C@@H](C)CO)C[C@@H](C)[C@H](CN(C)S(=O)(=O)c1ccc(F)cc1)OCCCC[C@H](C)O2,i
C/C=C/c1cnc2c(c1)C(=O)N([C@@H](C)CO)C[C@H](C)[C@@H](CN(C)S(=O)(=O)c1cn(C)cn1)O2,i

# (list continues)
SMILES,FGF22 binding
COc1ccc(S(=O)(=O)Nc2cccc3c2O[C@@H](CN(C)Cc2ccc(-c4ccccc4)cc2)[C@@H](C)CN([C@@H](C)CO)C3=O)cc1,i
COc1ccc2c3c([nH]c2c1)[C@@H](CO)N(C(=O)NC(C)C)CC31CCN(C(=O)C2CCCC2)CC1,i
COc1ccccc1C#Cc1cnc2c(c1)C(=O)N([C@@H](C)CO)C[C@H](C)[C@@H](CN(C)C)O2,i
O=C(Nc1ccc(F)cc1)N[C@H]1CC[C@H](CCn2cc(-c3ccccc3F)nn2)O[C@@H]1CO,i
COc1ccc(NC(=O)N(C)C[C@H]2Oc3ccc(NC(=O)Nc4ccc5c(c4)OCO5)cc3C(=O)N([C@H](C)CO)C[C@H]2C)cc1,i
C[C@H]1CN([C@@H](C)CO)C(=O)Cc2cc(NC(=O)CCN3CCOCC3)ccc2O[C@@H]1CN(C)S(=O)(=O)c1ccc(Cl)cc1,i
CO[C@@H]1CN(C)C(=O)c2ccc(NC(=O)Nc3ccc(F)cc3)cc2OC[C@@H](C)NC[C@@H]1C,i
CCCNC(=O)N[C@@H]1CC[C@@H](CC(=O)NCCc2ccccc2)O[C@@H]1CO,i
COCC(=O)N1CCCCN2[C@H](CO)[C@@H](c3ccc(-c4ccccc4)cc3)[C@H]2C1,i
COCC(=O)N(C)C[C@@H]1Oc2ncc(C#C[C@H](C)O)cc2C(=O)N([C@H](C)CO)C[C@H]1C,i
C[C@@H]1CN([C@@H](C)CO)C(=O)c2cc(NS(C)(=O)=O)ccc2O[C@H]1CN(C)S(=O)(=O)c1ccc(F)cc1,i
COc1ccc(-c2ccc([C@@H]3[C@H]4CN(CC5CCOCC5)CCCCN4[C@H]3CO)cc2)cc1,i
C/C=C/c1ccc([C@H]2[C@@H](CO)N(C(C)=O)[C@@H]2CN(CC)C(=O)CN(C)C)cc1,i
C[C@H]1CN([C@@H](C)CO)C(=O)c2cccc(NS(C)(=O)=O)c2O[C@@H]1CN(C)Cc1ccccc1,i
O=C(NCC[C@H]1CC[C@H](NS(=O)(=O)c2ccc(F)cc2)[C@@H](CO)O1)Nc1ccc(Cl)cc1,i
CC(C)C#Cc1cnc2c(c1)C(=O)N([C@@H](C)CO)C[C@@H](C)[C@H](CN(C)C(=O)Nc1cccc(F)c1)O2,i
COc1ccc(-c2ccc([C@@H]3[C@H](CO)N4CCCCN(C(=O)c5ccc(F)cc5)C[C@@H]34)cc2)cc1,i
C[C@H](O)C#Cc1cnc2c(c1)C(=O)N([C@H](C)CO)C[C@@H](C)[C@H](CN(C)Cc1ccccn1)O2,i
O=C([C@H]1[C@H](CO)[C@H]2Cn3c(ccc(-c4ccncc4)c3=O)[C@@H]1N2Cc1cccnc1)N1CCOCC1,i
C[C@H]1CN([C@@H](C)CO)S(=O)(=O)c2ccc(-c3ccccc3)cc2O[C@@H]1CN(C)Cc1cncnc1,i
O=C(O)C[C@H]1C[C@H]2c3cc(NC(=O)CC4CC4)ccc3O[C@H]2[C@@H](CO)O1,i
O=C(NCC[C@H]1CC[C@@H](NS(=O)(=O)c2ccc(F)cc2)[C@H](CO)O1)Nc1ccc(Cl)cc1,i
CCCC(=O)Nc1ccc2c(c1)C(=O)N(C)[C@H]1CC[C@H](CC(=O)NCCCN(C)C)O[C@@H]1CO2,i
O=C(CC(F)(F)F)N1C[C@H]2[C@@H](c3ccccc31)[C@H](CO)N2C(=O)C1CCCC1,i
C[C@H](CO)N1C[C@H](C)[C@@H](CN(C)Cc2ccc3c(c2)OCO3)Oc2ccc(NC(=O)Nc3ccccc3)cc2C1=O,i
O=C(C[C@H]1CC[C@H]2[C@@H](COC[C@@H](O)CN2C(=O)c2cccnc2)O1)NCc1ccc(-c2ccccc2)cc1,i
COC(=O)[C@]12C[C@H](CC(=O)NCCCCc3ccccc3)C(=O)N(Cc3ccc4c(c3)OCO4)C1=C[C@H](C(C)(C)C)O[C@@H]2C,i
Cc1ccc(S(=O)(=O)Nc2ccc3c(c2)C(=O)N([C@H](C)CO)C[C@H](C)[C@H](CN(C)C(=O)NC(C)C)OCCCC[C@H](C)O3)cc1,i
N[C@H]1CC[C@H](CCn2cc(-c3cccc(F)c3)nn2)O[C@@H]1CO,i
CCNC(=O)C[C@@H]1C=C[C@@H](NS(=O)(=O)c2ccc(C)cc2)[C@H](CO)O1,i
COc1ccc(S(=O)(=O)Nc2ccc3c(c2)C(=O)N([C@H](C)CO)C[C@H](C)[C@@H](CN(C)C(=O)Nc2ccc(F)cc2)OCCCC[C@@H](C)O3)cc1,i
Cc1ccc(S(=O)(=O)Nc2cccc3c2O[C@@H](CN(C)C)[C@H](C)CN([C@H](C)CO)C3=O)cc1,i
COCC(=O)Nc1ccc2c(c1)[C@H]1C[C@@H](CC(=O)N[C@H](C)c3ccccc3)O[C@H](CO)[C@H]1O2,i
CCCN(C)C[C@H]1OCCCC[C@H](C)Oc2ccc(NC(=O)Nc3cccc4ccccc34)cc2C(=O)N([C@@H](C)CO)C[C@H]1C,i
C[C@@H]1CN([C@@H](C)CO)C(=O)CCCn2nncc2CO[C@H]1CN(C)C(=O)Nc1ccc(C(C)(C)C)cc1,i
C[C@@H]1CN([C@H](C)CO)S(=O)(=O)c2ccc(C3=CCCC3)cc2O[C@@H]1CN(C)C(=O)Cc1ccncc1,i
COc1cccc(C(=O)N2C[C@H]3[C@@H](c4ccccc42)[C@@H](CO)N3Cc2ccccc2F)c1,i
C[C@@H]1CN([C@H](C)CO)C(=O)c2cc(NC(=O)CCN3CCOCC3)ccc2O[C@@H]1CN(C)C(=O)Nc1ccccc1,i
C[C@H]1CCCCO[C@H](CN(C)S(C)(=O)=O)[C@@H](C)CN([C@@H](C)CO)C(=O)c2cc(NC(=O)c3ccncc3)ccc2O1,i
C[C@H]1CCCCO[C@H](CN(C)C(=O)Nc2cccc3ccccc23)[C@@H](C)CN([C@@H](C)CO)C(=O)c2cc(NC(=O)Nc3cccc4ccccc34)ccc2O1,i
CCC(=O)N1CC(=O)N2[C@H](C1)[C@H](c1ccc(C#Cc3cccnc3)cc1)[C@@H]2CO,i
Cc1noc(C)c1NC(=O)N(C)C[C@H]1Oc2ccc(NC(=O)Nc3ccc(F)cc3)cc2C(=O)N([C@H](C)CO)C[C@H]1C,i
COc1ccc2c3c(n(C)c2c1)[C@@H](CO)N(C(=O)c1cccc(F)c1)CC31CN(C(=O)c2cccc(F)c2)C1,i
CC=Cc1ccc2n(c1=O)C[C@@H]1[C@@H](CO)[C@H](C(=O)N3CCOCC3)N(Cc3ccccc3OC)[C@H]21 (mixture of isomers),i
COc1ccccc1NC(=O)N[C@H]1C=C[C@@H](CC(=O)NCc2ccc(Cl)c(Cl)c2)O[C@@H]1CO,i
COc1ccc(NC(=O)N(C)C[C@@H]2Oc3ccc(NC(=O)C4CC4)cc3CC(=O)N([C@H](C)CO)C[C@H]2C)cc1,i
COc1ccc(S(=O)(=O)N(C)C[C@H]2OCCCC[C@H](C)Oc3ccc(NS(=O)(=O)c4ccc(C)cc4)cc3C(=O)N([C@@H](C)CO)C[C@@H]2C)cc1,i
COCC(=O)N1[C@@H]2CN(C(=O)Nc3ccccc3F)c3ccccc3[C@@H]2[C@@H]1CO,i
COCC#Cc1cnc2c(c1)C(=O)N([C@@H](C)CO)C[C@H](C)[C@@H](CN(C)C(=O)Nc1cccc(F)c1)O2,i
Cc1ccc(S(=O)(=O)Nc2cccc3c2O[C@@H](CN(C)Cc2ccc4c(c2)OCO4)[C@H](C)CN([C@@H](C)CO)C3=O)cc1,i
CC(C)C#Cc1ccc([C@@H]2[C@@H](CO)N3CCCCN(C(=O)NC(C)C)C[C@@H]23)cc1,i
C[C@H](CO)N1C[C@H](C)[C@H](CN(C)Cc2ccc(-c3ccccc3)cc2)Oc2ccc(NC(=O)Cn3cnnn3)cc2C1=O,i
CCCC(=O)Nc1ccc2c(c1)C(=O)N(C)[C@@H]1CC[C@@H](CC(=O)N3CCc4ccccc4C3)O[C@@H]1CO2,i
CO[C@H]1CN(C)C(=O)c2cc(NC(=O)c3cnccn3)ccc2OC[C@@H](C)NC[C@@H]1C,i
